S aureus helic: blocks Staphylococcus aureus DNA helicase | purified S. aureus helicase, fluorescence unwinding assay; about half of the hits fall short of the stated cut | inhibition, %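 (tested at about 80 µM)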 | actives 0.05% (n = 120,000);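 active = both duplicates at 50% or more, or one of them with a favoured structure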;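 also: 0% = mean of negative control wells and 100% = mean of positive control wells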
MgrA-DNA mod: alters Staphylococcus aureus MgrA binding to DNA; fluorescence polarization; inhibition, %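 (about 10 µg/mL by stock and volumes)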; actives 0.13% (n = 84,000); AID 602314;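 active = above 50% in either of two replicates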;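 also: 0% = protein plus DNA without compound and 100% = DNA alone without protein; higher means less MgrA bound to DNA so lower polarization; one replicate is shown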
* = called active by the depositor; . = no result given; & = joins results of further samples. Some of the compounds tested, so the mix of outcomes need not match the whole.

canonical_smiles	S aureus helic	MgrA-DNA mod
O=C(C1CCCCN1S(=O)(=O)c1ccc(F)cc1)N1CCN(c2ccccc2F)CC1 (stereo not drawn)	18	2.2
CSc1cccc(NC(=O)C(C)NS(=O)(=O)c2ccccc2)c1 (stereo not drawn)	10	-0.8
NNC(=O)c1ccc(Oc2ccc(C(=O)NN)cc2)cc1	-8	4.0
CN(C)C(=O)COC(=O)c1ccc(S(=O)(=O)N2CCCC2)cc1	-1	.
CCc1nnc(SCC(=O)N2c3ccc(F)cc3CCC2C)n1C (stereo not drawn)	0	-0.8
FC(F)(F)c1ccccc1NNC(=S)NCCN1CCOCC1	3	.
c1cn2cc(CSC3CCCC3)nc2s1	-12	0.9
O=S(=O)(c1ccc(-c2csc(=Nc3ccccc3)n2CCCO)cc1)N1CCOCC1	8	.
O=Nc1ccc(NOC(=O)c2ccc(Br)cc2)cc1	1	0.9
CCCNC(=O)COc1coc(CSc2nncn2C)cc1=O	8	.
Cc1ccc(C)c(NC(=O)CN(C)C(=O)NCc2cccnc2)c1	-4	.
Cc1ccc(C(=O)COC(=O)c2nc(Cl)ccc2Cl)cc1	10	0.0
CCS(=O)(=O)c1ccc(C#N)cn1	.	-1.1
CSc1c(-c2ccccc2)c(N)nn1S(=O)(=O)c1ccccc1	.	-3.1
O=C(NCc1ccccc1Cl)c1ccc[nH]1	.	0.1
c1ccc(-c2cnc(CSc3nc4c(n3-c3ccccc3)CCCC4)o2)cc1	-4	.
COc1ccc(/C(C)=N/Nc2c([N+](=O)[O-])cc(C(F)(F)F)cc2[N+](=O)[O-])cc1CC#N	.	-0.6
CC1(C)Cc2c(sc(NC(=O)c3ccccc3)c2C#N)C(C)(C)N1	-4	-2.6
O=C1NC2(CCN(Cc3ccccc3)CC2)Oc2ccccc21	.	-2.3
O=C(N/N=C/c1cccc(O)c1)C1C2CCCCC21 (stereo not drawn)	2	-1.4
Cc1noc(C(=O)N2CCN(C(c3ccccc3)c3ccccc3)CC2)c1Cl	-2	.
Cc1cn(CCC(=O)Nc2ccc(F)cc2)c2ccccc12	.	-1.9
O=C(CN1C(=O)CCC1=O)c1ccc2c(c1)OCCO2	15	.
CCN1CCN(c2cc(C)c3cc(NC(=O)C4CCCCC4)ccc3n2)CC1	-24	.
Cc1ccc(-c2c(CN3CCN(C)CC3)csc2C)cc1	-10	.
OCc1nccn1Cc1ccccc1	.	1.9
COc1cc(-c2cc(C(F)(F)F)n3ncc(C(=O)Nc4ccc(O)cc4)c3n2)cc(OC)c1OC	.	-1.3
COc1ccc(Cc2nc(C)cc(Cl)n2)cc1Cl	3	.
CCOc1ccc2nc(SCC(=O)N3CCN(C(=O)c4ccc(C)cc4)C3)sc2c1	3	-0.9
CC(=O)Nc1ccc(-n2cc(-c3ccccc3)nc2SCC(N)=O)cc1	26	-2.9
O=S1(=O)C=CC(Sc2nc3ccccc3[nH]2)C1 (stereo not drawn)	9	.
CCN1CCCC1CNC(=O)c1cnc(SC)nc1-c1ccccc1 (stereo not drawn)	-17	.
COc1ccc(-c2cc(=O)c3cccc(C)c3o2)cc1	21	-1.9
CN(/N=C/c1cc(Cl)cc(Cl)c1O)c1ccc(C(F)(F)F)cc1[N+](=O)[O-]	.	-1.1
CCC(=O)N(CCN1CCOCC1)Cc1cc2cc3c(cc2nc1Cl)OCO3	2	-1.8
CC(C)[N+](C)(CCOC(=O)C1c2ccccc2Oc2ccccc21)C(C)C	.	-1.2&0.3
CCc1ccc(NC(=O)CCc2nc3cccnc3n2Cc2cccs2)cc1	0	11
O=C(Cn1nnc2ccccc21)N1CCN(S(=O)(=O)Cc2ccccc2)CC1	-14	.
O=C(NCc1csc(-c2cccs2)n1)c1ccc2c(c1)CCO2	.	-1.7
N#C/C(=C\c1cccc(Oc2ccccc2)c1)C(N)=O	-9	.
O=S(=O)(NCCc1cn2ccccc2n1)c1ccccc1	5	.
O=C(NC(=S)NCCN1CCOCC1)c1cccc(C(F)(F)F)c1	-13	.
CCCCC[C@H](O)/C=C/[C@@H]1[C@@H](C/C=C\CCCC(=O)O)[C@@H](O)C[C@@H]1O	.	0.0
O=C(Cc1nn[nH]n1)Nc1ccc(F)c(Cl)c1	.	1.8
Oc1cccc2ccc(Nc3ccccn3)nc12	11	.
Oc1ccccc1-c1nc2cnccn2c1Nc1ccccc1	6	.
O=C(OC1CCCCC1=O)c1ccc(-c2nc3ccccc3s2)s1 (stereo not drawn)	-2	.
O=C1C2=C/C(=C\N3CCCCC3)C(=O)N2c2ccccc21	-127	9.6
Cc1c2cnn(-c3ccccc3)c(=O)c2c(C)n1CCCC(=O)N(C)Cc1ccccc1	6	-2.8
O=C(CN1C(=O)c2ccccc2S1(=O)=O)Nc1ccccc1	.	2.6

Overlap with the part before: 3 compounds, followed by the next part.
canonical_smiles	S aureus helic	MgrA-DNA mod
O=C1C2=C/C(=C\N3CCCCC3)C(=O)N2c2ccccc21	-127	9.6
Cc1c2cnn(-c3ccccc3)c(=O)c2c(C)n1CCCC(=O)N(C)Cc1ccccc1	6	-2.8
O=C(CN1C(=O)c2ccccc2S1(=O)=O)Nc1ccccc1	.	2.6
Cc1cc(/C=C2\C(=O)NC(=S)N(c3ccccc3F)C2=O)c(C)n1-c1ccc(Cl)c(C(=O)O)c1	25	43
CCOC(=O)C1=C(CC)Nc2ccccc2N=C1NC(=O)Cn1cnc2ccccc2c1=O	-3	.
Nc1ccccc1NCCO	-22	.
Cc1ccc2nc(-c3ccc(N(C)C)cc3)[nH]c2c1	-4	-0.3
O=C(N/N=C1\CCCc2ccccc21)C(O)c1ccccc1 (stereo not drawn)	-2	0.6
Cc1ccc(-n2c(SC/C(O)=C(\C#N)c3nc4ccccc4[nH]3)nc3ccccc3c2=O)cc1	3	.
CCc1ccc(-c2nn(-c3ccccc3)cc2/C=C2\SC(=S)NC2=O)cc1	-21	1.1
Cc1cc(NC(=O)/C=C\c2ccc3c(c2)OCO3)nc2c1c(=O)oc1ccccc12	-6	.
N#CCn1c(COC(=O)c2ccc(S(=O)(=O)N3CCCCCC3)cc2)nc2ccccc2c1=O	-17	.
Cc1ccc2c(c1)sc(=NC(=O)c1ccccc1)n2C	-15	.
COc1cccc(N=Nc2c(O)[nH]c(=O)[nH]c2=O)c1	7	-0.9
COc1ccc(-c2nc3cc(NC(=O)c4ccc([N+](=O)[O-])cc4Cl)ccc3o2)cc1OC	.	0.9
COc1cccc(N2CCN(C(=O)CN(c3ccc(C)cc3)S(=O)(=O)c3c(C)n[nH]c3C)CC2)c1	5	.
COc1ccc(C2CC(=O)C3=C(C2)NC(C)=C(C(=O)OCC(C)C)C3c2ccc(O)c(OC)c2)cc1 (stereo not drawn)	.	-1.2
CCOC(=O)c1cn2nc(Oc3ccc(N4CCN(C(C)=O)CC4)cc3)ccc2n1	3	.
Cc1ccc(NC(=O)CSc2nc3c(cnn3-c3ccc(S(N)(=O)=O)cc3)c(=O)[nH]2)cc1	-20	.
O=C(NCc1ccc(Cl)cc1)C1CCCN(S(=O)(=O)N2CCCCC2)C1 (stereo not drawn)	-9	.
COc1ccc(S(=O)Cc2ccc(C(=O)NC3CC3)o2)cc1 (stereo not drawn)	2	.
COc1ccc(OCCCC(=O)OCc2nc3ccccc3[nH]2)cc1	7	.
NC(=O)C1Cc2ccccc2CN1Cc1c(O)ccc2ccccc12 (stereo not drawn)	25	.
O=C(COC(=O)C1CC1)Nc1ccccc1Cl	-5	-1.1
COc1ccc2cc3cc(C(=O)NCCN4CCN(c5ccccc5F)CC4)oc3nc2c1	9	-0.7
N#CC1(N2CCNCC2)CCCCC1	6	.
Cc1noc(C)c1CC(=O)N1CCC2CCCCC2C1 (stereo not drawn)	13	.
CCc1ccc(N2C(=O)/C(=C/c3ccc(OCC(=O)O)c(OC)c3)C(=O)NC2=S)cc1	.	18

Four of these compounds, reformatted.
Cc1ccc2nc(-c3ccc(N(C)C)cc3)[nH]c2c1
- S aureus helic = -4
- MgrA-DNA mod = -0.3
O=C(N/N=C1\CCCc2ccccc21)C(O)c1ccccc1 (stereo not drawn)
- S aureus helic = -2
- MgrA-DNA mod = 0.6
Cc1ccc(-n2c(SC/C(O)=C(\C#N)c3nc4ccccc4[nH]3)nc3ccccc3c2=O)cc1
- S aureus helic = 3
- MgrA-DNA mod = .
CCc1ccc(-c2nn(-c3ccccc3)cc2/C=C2\SC(=S)NC2=O)cc1
- S aureus helic = -21
- MgrA-DNA mod = 1.1

More entries
Second line of a record: S aureus helic	MgrA-DNA mod
CN(C)CCNC(=O)c1ccc(Br)s1
→ 6	2.0
S=C(NCC1CCCC1NC(=S)NC1CC2C=CC1C2)NC1CC2C=CC1C2 (stereo not drawn)
→ .	4.1
CSc1nn(CSc2n[nH]c(-c3ccccc3F)n2)c(=S)s1
→ .	7.0
COc1cc(CNc2ccc3[nH]c(=O)[nH]c3c2)cc(Cl)c1OCC(=O)NC(C)(C)C
→ 3	.
S=c1nc(CNc2ccccc2)[nH][nH]1
→ 3	19
CC(NC(=O)Nc1ccccc1)C(c1cccs1)N1CCCC1 (stereo not drawn)
→ 15	.
CCOc1ccc2c(c1)[N+](C)(C)C(C)(C)C=C2C
→ -2	3.1
O=S(=O)(c1cccs1)N(c1ccccc1)C(F)F
→ -10	.
Cc1ccc(C(=O)N/N=C/c2ccccc2)cc1
→ .	-2.7
N#C/C(=C\c1ccc2c(c1)OCO2)C(=O)OCCN1CCCC1=O
→ -11	.
COc1ccc(N=Cc2ccc(SC)cc2)cc1N
→ -50	7.7
O=c1cc(CO)oc(CN2CCCC2)c1O
→ 9	.
CN(C)S(=O)(=O)c1ccc(C(=O)OCCN2C(=O)c3cccc4c(N5CCOCC5)ccc(c34)C2=O)cc1
→ .	2.8
CN(c1ccccc1C(=O)NCc1ccco1)S(C)(=O)=O
→ 4	4.6
CCN1CCn2c3c(c4cc(C)ccc42)CCCC31 (stereo not drawn)
→ 9	.

Among those listed so far, three have a furan ring, fused or not.
Second line of a record: S aureus helic	MgrA-DNA mod
COc1ccc(S(=O)Cc2ccc(C(=O)NC3CC3)o2)cc1 (stereo not drawn)
→ 2	.
COc1ccc2cc3cc(C(=O)NCCN4CCN(c5ccccc5F)CC4)oc3nc2c1
→ 9	-0.7
CN(c1ccccc1C(=O)NCc1ccco1)S(C)(=O)=O
→ 4	4.6

(continued)
Second line of a record: S aureus helic	MgrA-DNA mod
O=c1c(=Nc2ccccc2O)c(=O)c2ccccc12
→ 7	-0.2
C/C(=N\NC1=NCCN1)c1ccc(C)cc1
→ -19	.
C=CCn1c(SCC(=O)NC(C)(C#N)C(C)C)nc2ccccc2c1=O (stereo not drawn)
→ -7	.
Cc1cc(NC(=O)c2cccc(S(=O)(=O)N3CCCCC3)c2)no1
→ 8	-5.9
CC(C)C(=O)NS(=O)(=O)c1ccc(NS(C)(=O)=O)cc1
→ 2	.
O=C(O)c1cc2ccccc2nc1Cl
→ -7	.
CN=C(c1ccc(C)cc1)n1c(=S)nc(-c2ccc(C)cc2)n(C)c1=S
→ 8	-0.3
Cc1[nH]c(=O)[nH]c(=O)c1S(=O)(=O)N(C)Cc1ccccc1
→ -5	.
COc1cccc(-c2nnc(SCCOc3ccccc3)n2C)c1
→ -15	.
CC(Sc1ccccc1)C(=O)NCc1ccco1 (stereo not drawn)
→ 24	.
COc1cc(/C=N/NC(=O)CSc2nc(C)cc(C)n2)ccc1O
→ -9	.
O=C1CC(c2ccccc2F)c2cc3c(cc2N1)CCC3 (stereo not drawn)
→ -5	-0.8
NNC(=O)c1ccc(CSc2ccc(C(F)(F)F)cn2)o1
→ .	-0.5
CCOC(=O)c1ccc2nc(C(F)(F)F)nc(Cl)c2c1
→ -16	.
COCC(=O)Nc1ccc2c(c1)OCC(=O)N2Cc1ccc(C)cc1
→ 4	-1.6
COc1ccc2c(c1)CCCN2Cc1c[nH]c2ccccc12
→ .	0.5
Nc1c(-c2ccc3c(c2)OCCO3)oc2ccccc2c1=O
→ -12	.
Cc1cc2ncn(CCC(=O)NC(C)(C)C)c2cc1C
→ 10	0.8
CCN(CC)C(=O)Cn1cc(SCC(N)=O)c2ccccc21
→ 7	3.2
O=C1C(=Cc2cccn2-c2ccc(O)cc2)C(=O)c2ccccc21
→ 1	12
Cc1cc2c(N3CCC(C(=O)O)CC3)ncnc2s1
→ -2	-3.1
COCCn1c(O)c(/C=N/Nc2nnc(C)c(=O)[nH]2)c(=O)[nH]c1=S
→ -152	.
CC1=NN(c2ccccc2)C(=O)/C1=C\c1ccc(N)cc1
→ 7	-1.4
COC(=O)c1ccsc1NC(=O)CCOc1ccccc1
→ 13	.
N#Cc1cccc(OCC(=O)NC(=O)NCc2ccccc2)c1
→ 6	.
COC(=O)c1c(C)oc(C)c1S(=O)(=O)Nc1ccccc1
→ .	-0.8
CCOc1ccc(CC(=O)C2C(=O)CCCC2=O)cc1OCC
→ 3	.
C=CCc1cccc(C=Nc2cccn3cc(-c4ccccc4)nc23)c1O
→ 7	1.9
Clc1ccccc1CNCc1ccccc1
→ -3	-0.2
CC1CN=C(c2ccccc2)c2ccccc2C(=O)O1 (stereo not drawn)
→ .	-1.1
O=C(CC(SCc1ccco1)c1ccc(OC(F)F)cc1)c1ccco1 (stereo not drawn)
→ -2	.
CSc1ccc2nnc(-c3cccnc3)n2n1
→ 6	.
COCCCn1cc(C(=O)c2cc(F)ccc2O)cc(C#N)c1=O
→ -75	.
CC(C)(C)NCC(O)COc1cccc2c1CCC(=O)N2 (stereo not drawn)
→ .	-2.1
O=C(O)CCN1C(=O)c2cc(Cl)c(Cl)cc2C1=O
→ 15	-0.6
C#CCSc1nc(=O)n2ccccc2n1
→ 16	.
O=C1Cc2ccccc2C(c2ccccc2)N1 (stereo not drawn)
→ .	0.7
COc1ccc(CNC(=O)c2cn(C)c(=O)c3ccccc23)cc1
→ -4	-2.0
CCCc1nc(NC(C)=O)c(C#N)c(-c2ccccc2OC)c1CC
→ 10	.
COC(=O)CNc1cc(C)c(C(O)(C(F)(F)F)C(F)(F)F)cc1OC
→ 13	-0.7

Source: PubChem
